VACV Venus inh: qHTS for Stage-Specific Inhibitors of Vaccinia Orthopoxvirus: Venus Reporter Primary qHTS; AID 720580, 2013; 330,000 compounds, 0.46% hits; Vaccinia virus Venus reporter expression, fluorescence; Potency, µM (series often up to 36.5 µM), for the others: at the top dose activity change, negative = inhibition, most hits filed as inhibitors; active means well fitted inhibition curve with a large enough effect; inconclusive means small, poorly fitted or top-dose-only effect; inactive means no such curve, though single readings can be large or run the other way; tested in A549 cells; note: nearly all actives have a fitted effect of over 30% in size; inactives centre near -10
Vaccinia mCherry: qHTS for Stage-Specific Inhibitors of Vaccinia Orthopoxvirus: mCherry Reporter Primary qHTS | Vaccinia virus mCherry reporter infection, fluorescence; about a quarter of the inactives have no number | Potency, µM (titrated, usually from 36.5 µM), inactives show at the highest dose activity change, negative = inhibition, hits mostly inhibitors | AID 720579, 2013 | 310,000 compounds, 0.63% hits; active = well fitted inhibition curve with a large enough effect; inconclusive = small, poorly fitted or top-dose-only effect; inactive = no such curve, though single readings can be large or run the other way; tested in A549 cells; note: nearly all actives have a fitted effect of over 35% in size; inactives centre near -10
* marks the source's active call; other numbers are inactive results; i = inactive; u = inconclusive; x = not tested or not shown; & = joins results of further samples; [ ] = another dose, or the depositor's remark. % is set by controls: 0 for no effect and ±100 for the full control effect; potency is the fitted concentration of half-maximal effect.

SMILES	VACV Venus inh	Vaccinia mCherry
CC(=O)NCCNc1nc2cc(-c3ccccc3CO)sc2c(=O)n1C	-1.8%	29.0%
CCN(CC)CCCNC(=O)c1cc(-c2ccc(O)cc2)on1	5.0%	i
O=C(Nc1ncccc1O)c1cccc(S(=O)(=O)N2CCCC2)c1	-10.1%	i
CCOCCCNC(=O)C(NC(=O)C1CCC(C)CC1)C(C)C (centres undefined)	-11.2%	-6.2%
Cc1cccc(NC(=O)COC(=O)c2ccc3nc(C)c(C)nc3c2)c1	-15.3%	-9.8%
O=[N+]([O-])c1ccccc1OCCCN1CCc2ccccc2C1	-4.8%	-14.3%
CC(C)(C)c1nc2ccccc2c2nnc(SCC(=O)NCc3ccco3)n12	-13.8%	-14.7%
Cc1ccc(CN2C3=NCCN3c3ccccc32)cc1	-10.6%	-15.1%
CNC(=O)c1cc(S(=O)(=O)N2CC(C)OC(C)C2)ccc1N1CCOCC1 (centres undefined)	-15.3%	-8.5%
CCCC(=O)n1nc(-c2cccnc2)nc1NCc1ccc(OC)cc1	-6.2%&-5.2%	-3.5%&-10.8%
CC1=C(C(=O)Nc2cccc(F)c2)C2(CCCCCC2)OC1=O	-6.7%	-6.5%
CSc1ccc(CN(C)C(=O)c2cccc(S(=O)(=O)N3CCN(Cc4ccccc4)CC3)c2)cc1	-24.7%	-28.4%
CC(/C=N\NC(=O)CN1CCN(S(=O)(=O)c2ccc(C)cc2)CC1)=C\c1ccccc1	-18.5%	-19.1%
COc1ccccc1CNC(=O)c1ccc2nc3[nH]c4ccccc4c3nc2c1	10µM*	8.91µM*
Cc1ccc2nc(-c3ccc(S(=O)(=O)N4CCCCC4)cc3)cn2c1	-16.9%	i
Cc1cc(C)n(-c2cc(N3CCOCC3)nc(-c3ccccc3)n2)n1	-5.0%	-11.0%
CCNC(=O)c1c(O)c2cccc3c2n(c1=O)CC3	-15.9%	x
O=C(O)CCc1nn2c3ccccc3n(CC(=O)c3cccs3)c2nc1=O	-0.8%	i
Cc1cccc(OCC(=O)Nc2ccccc2N2CCN(C)CC2)c1	-13.5%	-12.9%
CCOC(=O)C(NC(=O)c1ccc(F)cc1)(Nc1sc2c(c1C(N)=O)CCC2)C(F)(F)F (centres undefined)	-15.4%	-9.9%
O=C(c1cccs1)N1C[C@H](O)[C@@H](n2cc(-c3ccc(F)cc3)nn2)C[C@@H]1c1ccccc1	-15.5%	i
O=C(CN1C(=O)C2C3C=CC(C3)C2C1=O)OCC(=O)c1ccc(Cl)c([N+](=O)[O-])c1 (centres undefined)	-2.2%	u
COCC(=O)N(C)CC1CCCN(CCc2ccccc2OC)C1 (centres undefined)	-12.1%	-11.1%
C/C=C/CC1(CC)C(=O)NC(=S)NC1=O	-12.3%	i
O=C1c2ccccc2C(=O)N1CC1=CCS(=O)(=O)C1	-10.9%	x
Cn1c(CNC(=O)c2ccc3c(c2)OCO3)nnc1SCC(=O)Nc1ccccc1Cl	2.6%	1.3%
O=[N+]([O-])c1cc(-c2nc(-c3ccccc3)no2)ccc1N1CCN(c2ccccc2)CC1	-4.2%	-12.6%
O=C(Cc1ccc(Cl)c(Cl)c1)N1CCCCC1CN1CCCC1 (centres undefined)	-9.4%	-24.3%
CCOc1ccc(NS(=O)(=O)c2ccc(C(=O)NC3CCC(O)CC3)cc2)cc1 (centres undefined)	-10.3%	i
CC(C)OC(=O)CCC(=O)Nc1nc2ccccc2s1	-13.5%	i
O=C(c1cccc([N+](=O)[O-])c1)N1CCN(c2n[nH]c(=O)[nH]c2=O)CC1	-13.2%	3.2%
NC(=O)COC(=O)CC1CC2CCC1C2 (centres undefined)	-6.4%	-0.1%
CC(=O)c1ccc(S(=O)(=O)NCCC(=O)OC(C)C(=O)Nc2ccc(F)cc2)cc1 (centres undefined)	-4.1%	-13.5%
Cc1cccc(C(=O)Nc2ccc3c(c2)nc(C)n3C)c1	-3.5%	-12.9%
COc1cccc(CNC(=S)Nc2cc(C)ccc2C)c1	2.0%	3.7%
COc1ccc(CN2CCc3nnc(CCc4ccccc4)n3CC2)c(OC)c1C	-1.9%	-6.0%
O=C(Cn1c(=O)c2cccn2c2ccc(F)cc21)N1CCN(c2ccccc2F)CC1	-17.5%	-22.6%
CC(=O)Nc1cccc(C(=O)N2CCN(Cc3ccccc3)CC2)c1	-4.7%	-5.0%
CCc1cc[n+](C2=C([O-])c3ccccc3C(=O)/C2=N\S(=O)(=O)c2cccs2)cc1	u	u
O=C(CSc1ccc(-c2cccnc2)nn1)N1CCCC1	15.7%	-8.4%
CSc1ccc(CN2CCC(C)(Oc3cnc(Cl)c4ccccc34)C2)cc1 (centres undefined)	-21.8%	i
COCCNC(=O)C1(C)CCCN(Cc2noc(-c3ccccc3OC)n2)C1 (centres undefined)	-2.5%	4.8%
Cc1ccc(S(=O)(=O)N(CC(=O)Nc2ccc(C(N)=O)cc2)C(=O)N2CCN(C)CC2)cc1	-13.0%	-15.4%
C=CC[C@H](CC(=O)N(CCO)Cc1ccccc1)C(=O)NC[C@@H](OC(=O)[C@@H](CC=C)Cc1ccc(F)cc1)c1ccccc1	u	-5.4%
COc1ccc(C2=Nc3ccccc3N(CC(=O)Nc3cccc(C(C)=O)c3)C(=O)C2)cc1	2.8%	-16.9%
C[C@@H]1CN(Cc2ccc3c(c2)CN(Cc2cccn2-c2ccc(Cl)cn2)CCO3)C[C@H](C)O1	1.7%	-16.0%
COc1ccc(CNC(=O)CCc2cn(Cc3cc(C)ccc3C)c3ccccc23)cc1OC	-10.3%	-15.1%
CCCCc1cc(O)c(CCCC)c(O)c1	u	x
O=C(NCc1ccco1)c1c(O)c2cccc3c2n(c1=O)CCC3	-14.0%	i
COc1ccc(N=Cc2c(O)cc(C)oc2=O)cc1	-3.0%	-1.3%
CC12CCC(=O)N1C(C(=O)N1CCN(S(=O)(=O)c3ccc(F)c(F)c3)CC1)CS2 (centres undefined)	1.6%	i
COc1ccccc1NC(=O)c1nnn(CC(=O)Nc2ccccc2)c1N	-26.2%	u
Cc1ccccc1-c1nc2ccccc2c(=O)n1/N=C/c1ccc([N+](=O)[O-])cc1	-13.3%	-12.3%
N#CCCn1cc(C(=O)NCc2ccccc2)c(-c2ccc3c(c2)OCCO3)n1	-1.0%	i
Cc1ccc2cc3c(N)c(C(=O)Nc4c(C)[nH]c(=O)[nH]c4=O)sc3nc2c1	11.2%	1.3%
C/C(CC(=O)Nc1ccc(Cl)cc1)=N\NC(=O)C(=O)N1CCCCC1	12.2%	-9.5%
Cc1ccc(C(=O)CC(C(=O)O)P(=O)(c2ccccc2)c2ccccc2)cc1 (centres undefined)	4.4%	-11.8%
CCOc1ccc(C(C(=O)NC2CCCCC2)N(C(=O)c2ccco2)c2ccc(-n3cnnn3)c(C)c2)cc1 (centres undefined)	-18.5%	x
Cc1ccc(-c2nc3ncccc3o2)cc1NC(=S)NC(=O)c1ccco1	-1.0%	-4.0%
COc1cccc(C(Nc2ccccc2)c2ccc3ccc(C)nc3c2O)c1 (centres undefined)	u	7.08µM*

The list goes on.
SMILES	VACV Venus inh	Vaccinia mCherry
CCOc1ccc(S(=O)(=O)N2CCCCC2)cc1NC(=O)CC1OC(=O)c2ccccc21 (centres undefined)	-7.8%	i
Cc1cc(NC(=O)CN(C)CCOc2ccccc2)ccc1Br	-11.1%	-10.3%
CCN(CC)c1ccc(NC(=O)/C=C/c2cc(Br)ccc2OC)cc1	u	-21.0%
Cc1ccccc1-c1noc(-c2ccccc2OCC(=O)Nc2ccccc2[N+](=O)[O-])n1	-6.5%	-15.2%
N#CC1=C(N)N(c2ncn[nH]2)C2=C(C(=O)CCC2)C1c1ccccc1 (centres undefined)	-13.1%	-5.2%
Cc1cccc(C)c1NC(=O)CN(C)CCc1ccccc1	0.9%	23.5%
CCOCCCNC(=O)CCc1nnc2ccc(N3CCN(c4cccc(OC)c4)CC3)nn12	-16.2%	-4.7%
Cc1ccc(NC(=O)CCOc2ccccc2C)cc1C	-1.9%	-6.6%
Cc1cc(C(=O)Nc2ccccc2N2CCOCC2)c(C)o1	-2.0%[7.34 µM]	i[7.34 µM]
CC1(C)OC(=O)C2=C(C[C@@H](C3CCCCC3)O[C@H]2c2ccc(Cl)cc2)O1	-4.8%	i
Nc1ncc(Br)cc1S(=O)(=O)NCCC(=O)NCc1ccc(F)cc1	-6.4%	i
Nc1[nH]n2c(=O)c3c(nc2c1N=Nc1ccc(Cl)cc1)CCCC3	-18.4%	x
CC(=O)Nc1ccc(C(=O)/C=C/c2ccc[nH]2)cc1	-13.7%	i
O=C(Nc1cccc(C(=O)O)c1)/C(=C\c1ccc2c(c1)OCO2)NC(=O)c1ccc(Br)o1	-4.3%	-10.4%
OCc1nnc2c3ccccc3c(-c3ccccc3)nn12	-9.3%	i
O=C(NCCc1cccs1)c1ccc(Cn2c(SCc3cccc(F)c3)nc3cccnc32)cc1	-18.9%	-11.5%
O=C(CN1CCCCC1)N/N=C/c1ccccc1Br	-18.6%	-0.3%
CC(C)CN(C(=O)CSc1n[nH]c(-c2cccs2)n1)C1CCS(=O)(=O)C1 (centres undefined)	-19.7%	-13.6%
Cc1ccc2c(c1)/C(=C/c1ccccc1)C(=O)N2	-17.5%	-7.6%
COc1ccc(CC(=O)NCC(=O)N/N=C/c2sccc2C)cc1	-14.1%	i
O=C(NC1CCCCC1)C1CC(=O)N(c2cccc([N+](=O)[O-])c2)C1 (centres undefined)	2.8%	-2.1%
Cc1cc(C)cc(-n2c(SCC(=O)N3CCCC3)nc3c([nH]c4ccccc43)c2=O)c1	8.0%	11.4%
COc1ccc(C(CCN2CCCC(C)C2)c2c(OC)cc(OC)c3c(-c4ccccc4)cc(=O)oc23)cc1 (centres undefined)	u	-24.8%
COC(=O)c1cn(NC(=O)c2cc([N+](=O)[O-])ccc2F)c(=O)c2ccccc12	-23.5%	-25.6%
CC(=O)N1CC2(CC(c3ccccc3F)=NO2)CN1c1ccc(Cl)cc1 (centres undefined)	-11.2%	0.9%
COc1ccc(NC(=S)NCCc2ccc(S(N)(=O)=O)cc2)c(OC)c1	-4.1%	-2.5%
CCc1ccc(NC(=O)C2=C(C)C(=O)OC23CCCCC3)cc1	-3.6%	-2.3%
CCN(CC)S(=O)(=O)c1ccc(OC)c(NC(=S)Nc2cccc(C)c2C)c1	-4.9%	-8.0%
CCOc1ccccc1NC(=O)CCC(=O)Nc1ccccc1OCC	-13.2%	-11.5%
COC(=O)C1=C(C)n2cnnc2NC1c1ccc(Cl)cc1 (centres undefined)	0.7%	-6.0%

A portion taken from the entries so far, as a working copy:
SMILES	VACV Venus inh	Vaccinia mCherry
O=C(NCCc1cccs1)c1ccc(Cn2c(SCc3cccc(F)c3)nc3cccnc32)cc1	-18.9%	-11.5%
O=C(CN1CCCCC1)N/N=C/c1ccccc1Br	-18.6%	-0.3%
CC(C)CN(C(=O)CSc1n[nH]c(-c2cccs2)n1)C1CCS(=O)(=O)C1 (centres undefined)	-19.7%	-13.6%
Cc1ccc2c(c1)/C(=C/c1ccccc1)C(=O)N2	-17.5%	-7.6%
COc1ccc(CC(=O)NCC(=O)N/N=C/c2sccc2C)cc1	-14.1%	i
O=C(NC1CCCCC1)C1CC(=O)N(c2cccc([N+](=O)[O-])c2)C1 (centres undefined)	2.8%	-2.1%

Continued:
SMILES	VACV Venus inh	Vaccinia mCherry
COc1ccccc1NC(=O)CSc1ccc(-c2sc(C)nc2C)nn1	-12.1%	-6.8%
CCc1cccc(C)c1NS(=O)(=O)c1ccc2c(c1)CC(C)N2C(=O)C1CC1 (centres undefined)	-17.1%	-11.9%
O=C(O)C(NS(=O)(=O)c1ccccc1)C(O)c1ccccc1 (centres undefined)	-5.9%	-0.9%
COc1ccc(NC(=O)C(CC(C)C)NS(=O)(=O)c2ccc3c(c2)oc(=O)n3C)cc1Cl (centres undefined)	-6.3%	-11.5%
CC1(COc2ccc(CC3SC(=O)NC3=O)cc2)CCCCC1 (centres undefined)	-4.5%[3.33 µM]	-1.7%[3.33 µM]
Cc1ccc(S(=O)(=O)N(Cc2ccc(C(F)(F)F)cc2)C(=O)N2CCN(C)CC2)cc1	-5.6%	-12.5%
CCc1ccc(NC(=O)N2CCN(c3nnc(C)c4c(C)n(-c5ccc(Cl)cc5)nc34)CC2)cc1	u	u
CNS(=O)(=O)c1cccc(C(=O)NC2CCCc3ccccc32)c1 (centres undefined)	-22.2%	-2.1%
CCCS(=O)(=O)N1CCN(Cc2ccc3c(c2)c2ccccc2n3CC)CC1	u	u
C=CCN1c2ccccc2[C@]23C[C@@H](C(=O)OC)N=C2NC(C(=O)OC)=C(C(=O)OC)[C@H]13	-4.5%	-19.5%
Fc1ccc(-c2noc3ncnc(Nc4ccc(F)cc4F)c23)cc1	-8.9%	-16.6%
COc1cccc(NC(=O)CN2C(=O)CC(c3ccco3)Sc3ccccc32)c1 (centres undefined)	-4.3%	-8.1%

Another view of four compounds above:
Molecule,VACV Venus inh,Vaccinia mCherry
Cc1ccc2cc3c(N)c(C(=O)Nc4c(C)[nH]c(=O)[nH]c4=O)sc3nc2c1,11.2%,1.3%
C/C(CC(=O)Nc1ccc(Cl)cc1)=N\NC(=O)C(=O)N1CCCCC1,12.2%,-9.5%
Cc1ccc(C(=O)CC(C(=O)O)P(=O)(c2ccccc2)c2ccccc2)cc1 (centres undefined),4.4%,-11.8%
CCOc1ccc(C(C(=O)NC2CCCCC2)N(C(=O)c2ccco2)c2ccc(-n3cnnn3)c(C)c2)cc1 (centres undefined),-18.5%,x
